gsp antag: antagonists of gsp mutant (McCune-Albright syndrome); gsp-mutant cells, cAMP HTRF, 30 min; control for the full effect not named in the record; Potency, µM (top dose mostly 76.9 µM), inactives show top-dose activity change, negative = inhibition, actives largely listed as inhibitors; hit rate 0.4% among 340,000; AID 624288; active = falling curve of any shape with a large fitted effect; inconclusive = falling curve, mostly with a smaller effect; inactive = flat or rising curve; cell line not stated here;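 note: intracellular cAMP measured with PDE inhibitor Ro 20-1724 present during compound exposure; potency is the fitted concentration of half-maximal effect; % is set by controls: 0 for no effect and ±100 for the full control effect; nearly all actives have a fitted effect of over 65% in size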
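HTRF cAMP measurement after 30 min RT detection following 30 min, 37C compound treatment alongside […] (added as 300 uM solution) in G418-selected cells seeded at 2000/well and grown 16–24 h.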
ClpP mod: qHTS Assay for Activators of ClpP. ATP-dependent Clp protease proteolytic subunit (Bacillus subtilis (strain 168)), P80244. AID 651965, 2013. Potency, µM (titrated, usually from 57.5 µM), for the others: top-dose activity change, negative = active. purified B. subtilis ClpP, FRET peptide cleavage, 20 min. hit rate 1.9% among 340,000; active = well fitted falling curve with a large enough effect; inconclusive = small, poorly fitted or top-dose-only effect; inactive = no such curve, though single readings can be large or run the other way; note: potency is the fitted concentration of half-maximal effect; the source files actives as falling curves though it sought activators and does not explain the sign; nearly all actives have a fitted effect of over 65% in size; many hits overshoot -100%
Target sequence (P80244 whole entry, looked up): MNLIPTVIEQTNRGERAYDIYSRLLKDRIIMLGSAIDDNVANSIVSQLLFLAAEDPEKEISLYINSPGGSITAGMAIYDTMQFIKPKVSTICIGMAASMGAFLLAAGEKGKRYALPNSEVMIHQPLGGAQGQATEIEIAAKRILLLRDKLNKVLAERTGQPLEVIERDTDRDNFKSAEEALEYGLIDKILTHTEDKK
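ClpP 10 microg/mL final, pH 8 Tris/KCl buffer with BSA, glycerol, Tween-20; compound pinned in; FRET-FV substrate; RT 20 min; Ex320/Em430; ΔFRET vs ADEP 5.8 microM, DMSO, no enzyme.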
TRPML1 blocker: inhibitors of human TRPML1 channel. TRPML1-inducible cells, Ca2+ dye fluorescence, FDSS; stronger effect = lower value; inhibition of EC80 agonist-evoked calcium signal. activity change, negative = inhibition, % (concentration not given with the values). hit rate 0.02% among 390,000. AID 624415; in the data active means activity change below about -50%; inconclusive means about -30% to -50%; inactive means above about -30%;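 note: stimulus is agonist 54-4 at its EC80 concentration; % is set by controls: 0 for no effect and ±100 for the full control effect; compound concentration not given in the record; the text of the record puts the active cut at -80%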
Target sequence (Q9GZU1 whole entry, looked up): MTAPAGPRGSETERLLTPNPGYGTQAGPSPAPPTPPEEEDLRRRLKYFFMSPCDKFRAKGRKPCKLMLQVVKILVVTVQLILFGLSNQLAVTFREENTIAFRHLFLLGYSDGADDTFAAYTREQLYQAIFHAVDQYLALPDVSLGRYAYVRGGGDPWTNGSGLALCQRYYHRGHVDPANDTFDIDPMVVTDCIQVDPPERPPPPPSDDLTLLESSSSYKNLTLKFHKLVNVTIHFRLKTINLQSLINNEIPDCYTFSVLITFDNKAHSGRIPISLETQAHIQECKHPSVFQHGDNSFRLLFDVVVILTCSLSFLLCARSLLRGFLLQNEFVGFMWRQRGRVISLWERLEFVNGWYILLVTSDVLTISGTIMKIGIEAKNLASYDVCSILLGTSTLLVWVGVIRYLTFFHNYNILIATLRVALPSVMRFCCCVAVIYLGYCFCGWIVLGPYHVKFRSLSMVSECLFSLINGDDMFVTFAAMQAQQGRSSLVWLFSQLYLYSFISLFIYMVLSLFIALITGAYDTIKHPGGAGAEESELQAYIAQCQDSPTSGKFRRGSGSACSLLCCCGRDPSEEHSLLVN
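Calcium fluorescence in TRPML1-DL cells induced overnight with Tet: a 110 s read after compound pin addition, then a 110 s antagonist read after challenge with 54-4 at 4 uM final (EC80).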
gsp agonist: agonists of gsp mutant (McCune-Albright syndrome) | hit rate 0.13% among 340,000 | Potency, µM (series often up to 76.9 µM), for inactives: at the highest dose activation (cAMP increase), usual class: activators | gsp mutant cells, cAMP HTRF, 30 min; control for the full effect not named in the record; active = well fitted activation curve with a large enough effect; inconclusive = small, poorly fitted or top-dose-only effect, or another doubt; inactive = no such curve, though single readings can be large or run the other way; cell line not stated here;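 note: phosphodiesterase inhibitor Ro 20-1724 added with compounds to block cAMP breakdown; potency is the fitted concentration of half-maximal effect; nearly all actives have a fitted effect of over 60% in size; about a fifth of the inactives were tested at one dose only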
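Cells in DMEM/10% FBS with G418 were pretreated with compounds in DMSO plus […] (300 uM stock) for 30 min at 37C. cAMP was measured by HTRF (cAMP-d2 plus anti-cAMP antibody-K) after 30 min at room temperature.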
Menin MLL FP FL: inhibitors of human menin-MLL interaction, wild-type MLL peptide. Fluorescence polarization, fluorescein-MLL peptide displacement from menin. FP activity change, % at 61.4 µM. 290,000 tested, under 10 active; inconclusive = falling polarisation curve, or a change in total fluorescence; inactive = total fluorescence flat and polarisation flat or rising; no compound was filed as active; the % refers to the polarisation; negative = inhibition;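 note: % of control where 0% means no effect; inhibitors lower the polarisation; unlabelled MLL peptide was the positive control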
TRPML1 ag: activates the human TRPML1 channel. Q9GZU1. TRPML1-expressing cells, Ca2+ dye fluorescence, FDSS; host cell line not named in the record; reference of the full effect not given here. hit rate 0.12% among 410,000. activation, % (no concentration beside the values); in the data active = activation above about 50%; inconclusive = about 30% to 50%; inactive = below about 30%; note: 0% is about no effect; the text of the record puts the active cut at 80%
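TRPML1-DL cells, Tet-induced overnight (~16 h, 37 degrees C), loaded 45-90 min at room temperature with Ca8 no-wash calcium dye plus quencher. FDSS fluorescence: 10 s baseline, compound pin-transfer, 110 s agonist read, then EC80 54-4 (4uM final) and 110 s antagonist read.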
Active calls of the source: *; ? = inconclusive; . = not tested or not shown; [ ] = another dose, or the depositor's remark.

SMILES	gsp antag	ClpP mod	TRPML1 blocker	gsp agonist	Menin MLL FP FL	TRPML1 ag
CC(=O)Nc1ccc(S(=O)(=O)N2CCC(C(=O)NCCC(=O)NCc3ccccc3)CC2)cc1	7%	0.2%	-6	-62%[inhibitor]	.	0.5
COc1cccc(NC(=S)N(C)C2CCN(C)CC2)c1	5%	.	3	-35%[inhibitor]	0.2	0.9
CCOC(=O)C1C(=O)NC(N2CCCCC2)=NC1c1ccccc1 (centres undefined)	-12%	0.1%	-4	-45%[inhibitor]	1.3	-0.4
C=CCN(c1ccc(C(=O)N2CCCC2)cc1)S(C)(=O)=O	3%	-0.7%	-13	9%	3.3	0.4
CC1(C)Cc2c(cnn2-c2cccc(F)c2)C(NC(=O)CN2CCCC2=O)C1 (centres undefined)	9%	-0.2%	-8	?	-2.7	-0.3
O=C1NC(CCc2ccccc2)C(=O)N1CCOc1cccc(Br)c1 (centres undefined)	-1%	-1.0%	-2	22%	-1.6	0.5
COC(=O)c1nn(C23CC4CC(CC(C4)C2)C3)c2c1C(=O)N(c1ccc(F)cc1)C2=O	14%	-0.4%	-2	0%	4.8	-0.4
Cc1cc(C)cc(C(=O)NCC(=O)N2CCN(c3cccc(Cl)c3)CC2)c1	?	.	13	-7%[15.4 µM]	-6.4	1.6
Cc1oc(CSCCSCc2cc(C(=O)O)c(C)o2)cc1C(=O)O	-1%	-0.8%	.	-31%[inhibitor]	0.6	.
COc1ccc2cc(CN(Cc3ccco3)C(=S)NCC3CCCO3)c(=O)[nH]c2c1 (centres undefined)	2%	.	-8	3%[15.4 µM]	1.6	2.6
Oc1ccccc1C=NCC(O)c1ccccc1 (centres undefined)	7%	0.8%	1	-7%[15.4 µM]	8.3	0.5
CCC(=O)N1CCN(c2ccccc2NC(=O)COc2ccccc2Cl)CC1	-19%	-0.1%	74	12%	5.9	0.2

An excerpt from above, showing only gsp agonist, Menin MLL FP FL and gsp antag.
| Molecule | gsp agonist | Menin MLL FP FL | gsp antag |
| --- | --- | --- | --- |
| O=C1NC(CCc2ccccc2)C(=O)N1CCOc1cccc(Br)c1 (centres undefined) | 22% | -1.6 | -1% |
| COC(=O)c1nn(C23CC4CC(CC(C4)C2)C3)c2c1C(=O)N(c1ccc(F)cc1)C2=O | 0% | 4.8 | 14% |
| Cc1cc(C)cc(C(=O)NCC(=O)N2CCN(c3cccc(Cl)c3)CC2)c1 | -7%[15.4 µM] | -6.4 | ? |

Next section
SMILES	gsp antag	ClpP mod	TRPML1 blocker	gsp agonist	Menin MLL FP FL	TRPML1 ag
CC1CCN(C(=O)CSc2nnc3ccc(-c4cccnc4)nn23)CC1	5%	-1.4%	-2	20%	.	-1.1
COc1cccc(-c2nc(CS(=O)(=O)CC(=O)NC3CCCc4ccccc43)c(C)o2)c1 (centres undefined)	?	-13%	9	-38%[inhibitor]	5.9	-0.3
COc1ccc(CC(=O)Nc2ccccc2C(=O)N2CCOCC2)cc1	1%	-3.5%	-5	-2%	4.8	-0.1
Cn1ccnc1/C(=N\NC(=O)c1ccccc1)c1cccc([N+](=O)[O-])c1	-26%	-0.9%	49	24%[15.4 µM]	0.1	0.8
Oc1ccc(N2CCN(C(=S)NCc3ccccc3)CC2)cc1	1%	.	1	1%	0.9	0.0
COc1cc2c(=O)n(-c3ccc(C)cc3)c(=O)n(CC(=O)c3ccc4c(c3)OCO4)c2cc1OC	45%[activator]	-5.6%	10	-23%	-1.5	4.8
Fc1cccc(F)c1CN1CCN(c2ncccn2)CC1	1%	-0.8%	-8	19%	0.2	0.6
Cc1ccc(Nc2nc(C(=O)NCc3ccco3)cs2)cc1	-22%	0.1%	-8	-10%	1.9	2.6
COc1ccc(NC(=O)[C@H](Cc2ccccc2)N2Cc3ccccc3C2=O)cc1OC	.	-1.9%	11	.	.	2.2
Cc1ccc2oc(-c3ccc(NC(=O)c4ccncc4)cc3O)nc2c1	4%	.	4	5%[15.4 µM]	3.8	0.3
Cc1cc(NC(c2cccnc2)c2ccc3cccnc3c2O)no1 (centres undefined)	-4%	-1.3%	9	5%	-0.2	0.2
Cc1cc(S(=O)(=O)N2CCCOC2CNC(=O)C(=O)NCCCN2CCOCC2)ccc1F (centres undefined)	11%	-5.0%	6	-72%[inhibitor]	.	-0.2
CN1Cc2ccccc2CC1CNCc1c(C(=O)N2CCCC2)nc2ccccn12 (centres undefined)	3%	.	5	10%	-5.2	0.2
C=C1C(=O)C2=CC1CCC(=O)C1(C)CCC(OC(C)=O)C(C)(C)C1CC2O (centres undefined)	-3%	-1.1%	-4	-14%	.	0.0
CCOC1=C2[C@H](c3ccccc3)N(S(=O)(=O)c3ccc(C)cc3)C(C(C)(C)C)[C@H]2n2c(=O)n(-c3ccccc3)c(=O)n2C1 (some centres undefined)	.	1.2%	-19	.	.	-0.1
O=C(CN1C(=O)/C(=C\c2cccc(Br)c2)Oc2ccccc21)NCCCN1CCOCC1	8%	-22%	-16	15%	0.5	0.0
O=C(Nc1ccc2c(c1)oc1ccccc12)c1ccc2c(c1)OCO2	5%	?	1	?	-0.4	-0.3
CCOC(=O)C1CCCN(S(=O)(=O)NC[C@H]2O[C@@H](n3cnc4c(N)ncnc43)[C@H](O)[C@@H]2O)C1 (some centres undefined)	14%	0.9%	-11	.	.	0.7
CCCOc1ccc(C2/C(=C(/O)c3ccccc3)C(=O)C(=O)N2CCCN(C)C)cc1OC (centres undefined)	-11%	1.6%	7	-1%	.	-0.8
O=C(c1cnn2c(C(F)(F)F)cc(-c3ccccc3)nc12)N1CCCCC1c1cccnc1 (centres undefined)	-3%	-4.2%	14	-42%[15.4 µM]	-0.8	0.3
Cc1ccc(CN2CCN(Cc3ccon3)CC2CCO)cc1 (centres undefined)	7%	.	6	13%[15.4 µM]	0.2	1.0
NS(=O)(=O)c1ccc2nc(NC(=O)c3ccc4ncsc4c3)sc2c1	?	0.4%	-4	-8%[15.4 µM]	.	-0.1
COc1ccc(C(=O)Nc2ccc(-c3cc4ccccc4oc3=O)c(C)c2)cc1OC	.	4.3%	-16	.	.	1.4
CCc1ccc2oc(C(=O)N(Cc3cccc(Cl)c3)Cc3ccco3)c(C)c2c1	.	-3.2%	5	.	.	0.4
CCOC(=O)N1CCC(NC(=O)c2ccc3c(c2)N(Cc2ccc(F)cc2)CCS3)CC1	-27%	4.6%	20	-17%	3.7	1.6
C/C(=N\NC(=O)CSc1nc(C)cc(C)n1)c1ccc2c(c1)OCCO2	-8%	.	-12	-3%[15.4 µM]	-1.6	0.4
CCN(CC)C(=O)C1=C(C)N(Cc2ccc(OC)cc2)C(=O)C(CC(=O)NCc2cccs2)C1 (centres undefined)	.	-0.3%	46	-28%	.	-0.1
COc1ccc(N2CCN(C(CNC(=O)C(=O)NCc3cccs3)c3ccco3)CC2)cc1 (centres undefined)	-29%	-0.1%	.	19%	-0.3	.
Cc1ccc(NC(=O)C2CCN(S(=O)(=O)c3ccc4ccccc4c3)CC2)nc1	-2%	-1.4%	0	-1%	.	-0.8
OCC1(Cc2cccc(C(F)(F)F)c2)CCN(Cc2cc(F)cc(F)c2)CC1	2%	.	5	?	-4.4	0.3
CNC(=O)c1cc(S(=O)(=O)N2CC(C)OC(C)C2)ccc1N1CCCCC1 (centres undefined)	0%	-2.8%	-18	-7%[15.4 µM]	0.6	-0.3
Cc1nn(-c2ccc(N3CCCC3)nn2)c(C)c1CCC(=O)Nc1ccc(F)cc1F	.	-1.2%	-1	.	.	-0.2
CCN(CC)C(=O)CSc1nnc2[nH]c(=O)cc(C)n12	.	-17%	-7	.	.	-0.3
c1ccc2c(c1)CCOC2CNCCCN1CCCCC1 (centres undefined)	21%	-0.3%	23	-36%[inhibitor]	-3.2	0.7
Cc1ccnc(N2CCC(C(=O)NC3CCCCCC3)CC2)n1	-2%	25µM*	-10	-13%	0.2	-0.4
CCOc1ccc(S(=O)(=O)Nc2ccc(C(=O)NN)cc2)cc1	1%	-4.9%	-10	8%	-0.6	1.8
O=C(NCCOC(=O)c1cccs1)c1cccnc1	-7%	-1.7%	22	?	3.6	0.4
C=CCn1c(SCc2ccc3c(c2)OCO3)nc2scc(-c3ccco3)c2c1=O	-4%	-11%	13	2%	4.1	1.1
Cc1ccc(CCNC(=O)Cn2cccc2)cc1	8%	0.8%	-2	25%	1.4	0.4
C/C=C/C=C/C(=O)N1CC[C@]23c4ccccc4N[C@H]4N(C)c5cccc6c5[C@]42CCN([C@H]6C2OC2(C)C)[C@H]13 (some centres undefined)	-18%	-0.9%	3	-20%	3.8	1.0
CCOc1ccccc1NC(=O)CN1CCC(NC(=O)Nc2ccccc2)CC1	-18%	.	5	-35%	-3.0	-0.2
O=C(CSCc1ccccc1)NNc1c(F)c(F)cc(F)c1F	12%	-1.7%	6	-7%[15.4 µM]	-8.2	-0.2
Cc1cc(C)c(C)c(S(=O)(=O)NC(C(=O)O)C(C)C)c1C (centres undefined)	7%	-0.3%	11	-65%[inhibitor]	0.3	1.1
Cc1ccc(NC(=O)Nc2nnc(N(C)Cc3ccccc3)s2)c(C)c1	.	2.2%	-28	.	.	0.0
CCC(Sc1nc(=O)cc(N)n1CCc1ccccc1)C(=O)Nc1ccccc1C#N (centres undefined)	3%	-0.7%	-26	19%	-1.0	-0.3
Cc1ccsc1C(=O)Nc1n[nH]c(C(F)(F)F)n1	-2%	.	-13	-4%[15.4 µM]	2.0	0.1
COc1ccc(-c2noc(CSc3nnc(C)n3-c3ccc(C)cc3)n2)cc1OC	.	1.5%	14	.	.	0.8
COc1ccc(C(=O)O)cc1S(=O)(=O)Nc1cc(Cl)ccc1N1CCOCC1	-15%	0.8%	-5	6%	.	-0.7
CSc1ccccc1NC(=O)Cn1nnc(-c2ccc(S(C)(=O)=O)cc2)n1	8%	1.9%	7	8%	-1.0	1.4
N/C(=N\S(=O)(=O)c1ccc(Cl)s1)c1ccccc1	0%	-4.3%	6	-49%[inhibitor]	3.0	-1.4
O=C(CSC(=S)N1CCOCC1)Nc1ccc(S(=O)(=O)Nc2ncccn2)cc1	10%	-2.5%	-6	-2%	-12	-0.3
O=C(CCNS(=O)(=O)c1ccccc1C(F)(F)F)NCCCc1ccccc1	1%	-0.2%	4	-36%[inhibitor]	.	-0.6
CC1CN(Cc2nc3c(c(=O)n(C)c(=O)n3C)n2CCN2CCOCC2)CC(C)O1 (centres undefined)	17%	-4.2%	-8	-10%	3.1	0.1
COC(=O)c1ccc2c(C)c(C(C)(C)O)[nH]c2c1	-2%	4.5%	-5	-37%[inhibitor]	-1.9	-0.4
N#CC1(NC(=O)COc2ccc3oc4ccccc4c3c2)CCCCC1	14%	-0.7%	-18	-5%	6.1	1.1
COc1ccc(NC(=S)N2CCCCC2c2cccnc2)cc1 (centres undefined)	2%	.	5	10%[15.4 µM]	4.4	-0.4

From PubChem BioAssay
